# StopGo RLuc: FMDV 2A StopGo reporter, Renilla signal | HEK cells with a luciferase reporter of 2A StopGo recoding | Potency, µM (top dose mostly 57.5 µM), for the others: at the highest dose signal change, negative = less light | 120,000 compounds, 0.32% hits | AID 1745857; active means well fitted falling curve with a large enough effect; inconclusive means small, poorly fitted or top-dose-only effect; inactive means no such curve, though single readings can be large or run the other way; further: nearly all actives have a fitted effect of over 55% in size; overnight with compound
# 2A firefly: lowers the firefly signal of an FMDV 2A StopGo reporter; Potency, µM (highest dose often 57.5 µM), without a hit: top-dose signal change, negative = less light; 120,000 compounds, 0.23% hits; HEK cells with a luciferase reporter of 2A StopGo recoding; active = well fitted falling curve with a large enough effect; inconclusive = small, poorly fitted or top-dose-only effect; inactive = no such curve, though single readings can be large or run the other way; further: nearly all actives have a fitted effect of over 60% in size; overnight with compound
# An asterisk follows results filed as active; ? = inconclusive; & = joins results of further samples; [ ] = remark or other dose. On the % scale 0 is the no-effect control and ±100 the full control effect; potency means the concentration at half of the fitted maximal effect.
# Screens in order – StopGo RLuc	2A firefly
Cc1nc(CCNC(=O)C2CCN(S(=O)(=O)c3cccc(C(F)(F)F)c3)CC2)cs1
    8.4%	4.1%
COc1ccc2scc(N3CCN(Cc4ccccc4)CC3)c(=O)c2c1
    14.4%	149.4%[activator]
CC(=O)Nc1nonc1-c1nnc(SCC(=O)Nc2ccc(C)cc2C)n1C
    -0.6%	-12.6%
COc1ccccc1C(=O)n1nc(-c2ccco2)nc1NCc1ccc(Cl)cc1
    0.0%	31.7%[activator]
C=CCNc1nc(C(=O)OCC(=O)NCc2cccc(OC)c2)cs1
    -1.8%	-5.6%
CCC(C)NC(=O)c1cc(-c2cccc(OC)c2)on1 (stereo not given)
    -4.2%	187.0%[activator]
COc1ccccc1NS(=O)(=O)c1ccc2oc(SCCOc3ccccc3F)nc2c1
    -27.1%	?
CCC(C(=O)NCCc1c[nH]c2ccc(C)cc12)c1ccccc1 (stereo not given)
    15.0%	-11.4%
CCOC(=O)Cc1cc(=O)n2[nH]c(NCc3ccccc3Cl)nc2n1
    -1.0%	21.8%
CCn1c(C)cc2c(c1=O)C(c1ccc(Br)cc1)C(C#N)=C(N)O2 (stereo not given)
    0.0%	0.4%

# Among those listed so far, three contain four or more nitrogen atoms.
# Screens in order – StopGo RLuc	2A firefly
CC(=O)Nc1nonc1-c1nnc(SCC(=O)Nc2ccc(C)cc2C)n1C
    -0.6%	-12.6%
COc1ccccc1C(=O)n1nc(-c2ccco2)nc1NCc1ccc(Cl)cc1
    0.0%	31.7%[activator]
CCOC(=O)Cc1cc(=O)n2[nH]c(NCc3ccccc3Cl)nc2n1
    -1.0%	21.8%

# (cont.)
# Screens in order – StopGo RLuc	2A firefly
CSC1=N/C(=C\c2cc(C(C)(C)C)c(O)c(C(C)(C)C)c2)C(=O)S1
    -2.9%	17.5%
O=C(C1CCN(S(=O)(=O)c2cccc3nonc23)CC1)N1CCN(c2ccccc2F)CC1
    11.1%	-14.2%
O=C(CC1C(=O)OCCN1Cc1ccccc1)Nc1cc(Cl)cc(Cl)c1 (stereo not given)
    14.3%	-7.8%
O=C1CCc2ccc(OCCCCN3CCN(c4cccc(Cl)c4Cl)CC3)cc2N1
    -8.5%	-17.9%
COCCNC(=O)C(=O)N1CCN(c2nc(C(C)C)c3c(c2C#N)CCCC3)CC1
    8.9%	-9.0%
Cc1cccc(S(=O)(=O)Nc2nc3ccccc3nc2Nc2cccc(C(=O)O)c2)c1
    0.0%	77.8%[activator]
COc1ccc(C)cc1NC(=O)c1c(C)oc2ncn(CC(C)C)c(=O)c12
    0.0%	12.5%
Cc1ccc(F)cc1NC(=O)C(C)(C)c1ccccc1
    10.4%	7.6%
COc1ccc(-n2ncc(C(=O)NCCN3CCOCC3)c2C2CCN(C(=O)OC(C)(C)C)CC2)cc1
    276.9%[activator]	221.2%[activator]
CC(c1cc2ccccc2s1)N(O)C(N)=O (stereo not given)
    -6.1%	36.0%[activator]
COc1ccc(CNC(=O)C2CCN(S(=O)(=O)Cc3ccccc3)CC2)cc1
    -7.2%	-12.4%
O=C(O)CCS(=O)(=O)CCC(=O)O
    12.1%	12.9%
CCc1ccc(NC(=O)Cn2c(=O)n(CCC(=O)NCCc3ccc(OC)c(OC)c3)c(=O)c3ccccc32)cc1
    -13.1%	-11.6%
Cc1c[n+](=O)c2ccccc2n1[O-]
    14.5%	8.9%
COc1ccc(CNC(=O)C2CCCCN2S(=O)(=O)c2ccc(F)cc2)cc1 (stereo not given)
    30.4%	9.5%
Cc1ccc(-c2nc3c(cnn3-c3ccccc3)c(=O)n2-c2cccc(Cl)c2)cc1
    -4.7%	24.4%
CCCCNC(=O)CSc1nc2n[nH]c(C)c2c(=N)n1-c1cccc(C)c1
    69.2%[activator]	-14.1%
O=C(CSc1nc(-c2cccs2)nc2cc(=O)[nH]n12)Nc1ccccc1F
    -1.0%	-4.3%
CCOC(=O)c1cccc(NC(=O)NCCc2c(C)nn(C)c2C)c1
    0.0%	23.1%
CC(=O)Nc1ccc(-c2csc(NC(=O)c3nn(C(C)C)c(=O)c4ccccc34)n2)cc1
    35.6%[activator]	0.0%
CCc1ccccc1NC(=O)c1sc2nc(C)cc(COC)c2c1N
    2.0%	7.7%
Cc1nc(N/C(N)=N/S(=O)(=O)c2ccc3ccccc3c2)nc2ccccc12
    0.0%	10.3%
CCN(CC)c1ccc(C2C(C(N)=O)=C(C)Nc3nc(SCc4ccccc4Cl)nn32)cc1 (stereo not given)
    4.8%	?
CN(C)Cc1ccccc1CNC(=O)c1nccnc1N
    9.8%	9.9%
NS(=O)(=O)c1ccc(N/N=C/c2cccc(O)c2)c([N+](=O)[O-])c1
    -4.5%	0.0%
CC(C)c1cc(C(=O)N2CCC(C(=O)N3CCCCCC3)CC2)c2ccccc2n1
    -1.2%	-4.8%
COc1ccc(-c2noc(-c3cc4cc(Cl)ccc4oc3=O)n2)cc1OC
    -7.1%	-3.8%
O=C(NCc1ccc(Cl)cc1)C1CCN(S(=O)(=O)c2ccccc2)CC1
    -2.7%	-9.1%
Cc1ccccc1C(=O)N1CCCCC1CCN1CCCCC1 (stereo not given)
    -6.6%	-18.8%
CC(C)COC(=O)c1nn(Cc2ccccc2)c(=O)c2ccccc12
    83.3%[activator]	0.0%
CCN(Cc1nnc(-c2ccc(Br)s2)o1)C1CC1
    9.9%	32.6%[activator]
CC(NC(=O)c1ccc(Cl)cc1)C(=O)NCc1cnn(-c2ccccc2)c1 (stereo not given)
    11.1%	5.7%
CN(C)c1ccc(-c2noc(-c3cc4cc(F)ccc4oc3=O)n2)cc1
    -0.4%	12.3%
Cc1c(CC(=O)O)c(=O)oc2cc(OCc3ccc4ccccc4c3)ccc12
    -15.3%	43.6%[activator]
COc1ccc(Cn2c(C(C)NC(=O)c3ccco3)nc3ccccc32)cc1 (stereo not given)
    -6.5%	-7.8%
Cc1cc(C)c(S(=O)(=O)NCC(c2cccnc2)S(=O)(=O)c2ccccc2)c(C)c1 (stereo not given)
    70.1%[activator]	-1.5%
Cc1cc(C)c(NC(=O)C2CCN(c3nc4ccccc4n4cccc34)CC2)c(C)c1
    0.0%	37.8%[activator]
Cc1cccc(Cc2c(C)nc3nc(C(F)(F)F)[nH]n3c2=O)c1
    -30.8%	-10.8%
Cc1oc2cc(O)ccc2c(=O)c1Oc1ccc(C(=O)O)cc1
    2.1%	26.2%
COc1ccccc1SC(C)C(=O)NC(C)(C)C (stereo not given)
    -5.7%	-8.9%
Cc1cc(NC(=O)CNc2cc(S(=O)(=O)N3CCOCC3)ccc2N2CCCC2)no1
    16.2%	2.1%
COC(=O)c1ccc(COC(=O)c2ccc(Cl)cc2O)cc1
    0.2%	101.4%[activator]
Cc1nc2nc(SCC(=O)c3ccccc3)[nH]c2cc1Br
    -16.7%	13.6%
COc1ccc(NC(=O)c2c(NC(=O)COc3ccc(Cl)cc3)sc3c2CCCCC3)cc1
    1.7%	106.9%[activator]
Nc1cc(=O)nc(SCC(=O)Nc2ccc(F)cc2)n1-c1cccc(Cl)c1
    -9.5%	-10.8%
N#Cc1ccccc1NC(=O)CSc1nncn1CCc1cccs1
    -2.3%	12.5%
COc1cc(C2C=C(C(=O)O)Nc3ncnn32)ccc1O (stereo not given)
    -4.7%	-13.8%
Cc1cn2c(=O)cc(COC(=O)c3cccc(NC(=O)c4ccc(C(C)(C)C)cc4)c3)nc2s1
    -7.2%	-18.7%
O=C(CCCn1c(=O)c2ccccc2n(CC(=O)Nc2cccc(Cl)c2)c1=O)NCc1ccc2c(c1)OCO2
    -9.2%	-15.3%
Cc1oc(-c2ccccc2Cl)nc1Cn1c(SCc2cccc(F)c2)nc2cccnc21
    -15.6%	-18.6%

# (more compounds)
# Screens in order – StopGo RLuc	2A firefly
Cc1ccc2cccc(NC(=O)c3ccc(-c4ccc(Cl)cc4Cl)o3)c2n1
    -8.8%	-14.2%
CCCOc1ccc2ccccc2c1CN(C)C(=O)c1n[nH]c(=O)c2ccccc12
    15.0%	-12.6%
Cc1cc(C)nc(NNC(=O)CCNC(=O)c2ccccc2C)n1
    -11.2%	-3.9%
Cc1ccc(-c2nn(CCC(=O)Nc3cccc4ccccc34)c(=O)c3ccccc23)cc1
    -1.8%	-1.3%
COc1ccc(OC)c(CCNC(=O)C2CCN(c3ncnc4c3nc3n4CCCCC3)CC2)c1
    -10.9%	-16.8%
COc1ccc(NC(=O)CN(C)CC(=O)Nc2ccccc2)cc1
    -0.5%	7.0%
O=c1[nH]cccc1NS(=O)(=O)c1ccc(Cl)c(C(F)(F)F)c1
    35.1%[activator]	-1.1%
O=C(CCc1ccccc1)Nc1ccc(NC(=O)c2ccco2)cc1
    5.0%	104.2%[activator]
COC(=O)C(CCSC)NC(=O)c1cc2c(n(-c3ccc(Cl)cc3)c1=O)CCCC2=O (stereo not given)
    -10.7%	-12.7%
COc1cccc(-c2nc(S(=O)(=O)c3ccccc3)c(N3CCCCC3)o2)c1
    -1.1%	2.6%

# Given with each value named: part of the list above.
CCCOc1ccc2ccccc2c1CN(C)C(=O)c1n[nH]c(=O)c2ccccc12
  StopGo RLuc: 15.0%	2A firefly: -12.6%
COC(=O)C(CCSC)NC(=O)c1cc2c(n(-c3ccc(Cl)cc3)c1=O)CCCC2=O (stereo not given)
  StopGo RLuc: -10.7%	2A firefly: -12.7%

# Next section:
# Screens in order – StopGo RLuc	2A firefly
COc1ccc(CNC(=O)Cn2c(=O)c3c(ncn3C)n(C)c2=O)cc1
    -1.6%	23.5%
CCC(=O)N1CCc2cc(S(=O)(=O)CCC(=O)NCc3ccccc3OC)ccc21
    -0.3%	-6.0%
O=C(COc1ncnc2ccccc12)Nc1cccc(F)c1
    -2.8%	8.2%
CCC1=C(c2ccc(C)cc2)S(=O)(=O)N=C1N1CCC(C(=O)NCCc2ccc(Cl)cc2)CC1
    -21.1%	?
COc1cccc(-c2nc(SCc3cc(=O)c4cc(Cl)ccc4[nH]3)n[nH]2)c1
    7.6%&12.3%	2.8%&2.0%
COc1ccc2c(c1)cc(C(=O)Nc1cccc(Cl)c1)n2C
    -4.9%	23.2%
O=C(/C=C/c1cc(Br)cc(Br)c1O)c1ccccc1
    -24.5%	1.3%
CCNC(=S)N/N=C/c1cccc(F)c1
    -1.2%	26.1%
CC(=O)Nc1c(C)nn(-c2ccccc2)c1N1CCC(C(=O)Nc2ccccc2C(F)(F)F)CC1
    2.6%	-8.5%
COc1cc(C(=O)Nc2oc3c(C)cccc3c(=O)c2-c2ccccc2)cc(OC)c1OC
    -7.6%	1.0%

# Taken from above.
# 2A firefly result of Cc1ccc(-c2nn(CCC(=O)Nc3cccc4ccccc34)c(=O)c3ccccc23)cc1 → -1.3%
# StopGo RLuc result of CCCOc1ccc2ccccc2c1CN(C)C(=O)c1n[nH]c(=O)c2ccccc12 → 15.0%

# (next part)
# Screens in order – StopGo RLuc	2A firefly
COc1ccc(/C=C2\N=C(SC)SC2=O)cc1C
    6.7%	1.7%
Cc1nc2nc[nH]n2c(=O)c1NC(=O)Nc1cccc(C(F)(F)F)c1
    -10.0%	-4.9%
COc1cc(-c2c(NC(=O)c3ccc(F)cc3)oc3ccccc3c2=O)cc(OC)c1OC
    45.7%[activator]	7.3%
COc1cccc2c1cc1c(=O)n(CC(=O)N3CCN(c4cccc(C)c4C)CC3)nc(C)n12
    -7.4%	-6.8%
COc1ccc(-c2c(C)c3ccc(O)c(CN4CCN(C)CC4)c3oc2=O)cc1OC
    -8.4%	-17.9%
O=C(Oc1ccccc1F)c1nc(SCc2ccc(F)cc2)ncc1Cl
    -7.4%	-12.6%
O=C(C1=C(c2ccccc2)S(=O)(=O)CCO1)N(Cc1cccc(Cl)c1)c1ccccn1
    ?	-11.2%
COC(=O)c1ccc(OCc2cc(OC)c(Br)cc2OC)cc1
    20.8%	23.2%
Cc1ccc(-c2nn3c(C)nnc3c3ccccc23)cc1S(=O)(=O)NC(C)(C)CO
    104.4%[activator]	26.5%
COc1cc(C2NC(=O)N(C)C(C)=C2C(=O)OC2CCCC2)cc(Br)c1O (stereo not given)
    ?	?
O=C(/C=C/c1cccc(Cl)c1)NC1CCCC1
    13.3%	162.6%[activator]
O=C(NCC(F)(F)F)C1CCCN(Cc2cccc(F)c2)C1 (stereo not given)
    10.3%	7.1%
O=C(CC1Sc2ccccc2NC1=O)Nc1cccc(C(F)(F)F)c1 (stereo not given)
    122.3%[activator]	7.0%
CCc1ccc(C(=O)C(C#N)C(=O)NCc2ccccc2)cc1 (stereo not given)
    0.0%	0.0%
Nc1nc(SCc2nc(-c3cccc(C(F)(F)F)c3)no2)n[nH]1
    ?	-1.4%
Cc1ccc(CNS(=O)(=O)c2ccc(CCC(=O)O)cc2)cc1
    2.3%	14.2%
Cc1cccc(Nc2nc(-c3cc4ccccc4oc3=O)cs2)c1C
    ?	110.1%[activator]
O=C(NC1CCCC1)c1cc(-c2ccc(Cl)c(Cl)c2)nc2ccccc12
    1.1%	8.9%
Cc1ccccc1C(=O)N/N=C1\CC(=O)CC(C)(C)C1
    -1.3%	9.8%
Cn1nnnc1Sc1ccc(S(=O)(=O)N2CCCCC2)cn1
    -5.8%	0.0%
c1ccc(COc2ccc3cc[nH]c3c2)cc1
    28.2%	248.9%[activator]
O=C(O)c1cc(-c2ccccn2)nc2ccc(Cl)cc12
    5.1%	8.8%
CC(C)CNC(=O)c1cc(-c2cccc(Cl)c2)on1
    23.6%	161.9%[activator]
CCn1nc(C(=O)Nc2ccc3c(c2)CCC3)c2ccccc2c1=O
    0.9%	73.6%[activator]
CC(C)CNc1nc(-c2ccc(O)c(C(N)=O)c2)cs1
    50.7%[activator]	44.0%[activator]
CSc1ccc(CCNC(=O)CCn2c(=O)c3cccn3c3ccc(F)cc32)cc1
    2.1%	-8.6%

# Source: PubChem BioAssay
